# PKD1 kinase inh – blocks activity of human protein kinase D1; 200,000 tested, 0.056% active; Q15139; PKD1 kinase fluorescence polarization assay; inhibition, %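 (about 10 µM by stock and volumes)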;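 active = inhibition of 50% or more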;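 also: controls were vehicle for no effect and a reference inhibitor for full effect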
# GALR2 agonist – agonists of human galanin receptor 2 (GALR2); O43603; GALR2-expressing cells, agonist activation read-out; activation, %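 (tested at 5 µM)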; 140,000 tested, 0.48% active; AID 803;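 active = above mean plus 3 SD of all compounds, about 5% in these data, not always enough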;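 also: 0% = vehicle buffer wells and 100% = reference agonist at full effect; tested in CHO reporter cells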
# Target sequence (O43603 whole entry, looked up): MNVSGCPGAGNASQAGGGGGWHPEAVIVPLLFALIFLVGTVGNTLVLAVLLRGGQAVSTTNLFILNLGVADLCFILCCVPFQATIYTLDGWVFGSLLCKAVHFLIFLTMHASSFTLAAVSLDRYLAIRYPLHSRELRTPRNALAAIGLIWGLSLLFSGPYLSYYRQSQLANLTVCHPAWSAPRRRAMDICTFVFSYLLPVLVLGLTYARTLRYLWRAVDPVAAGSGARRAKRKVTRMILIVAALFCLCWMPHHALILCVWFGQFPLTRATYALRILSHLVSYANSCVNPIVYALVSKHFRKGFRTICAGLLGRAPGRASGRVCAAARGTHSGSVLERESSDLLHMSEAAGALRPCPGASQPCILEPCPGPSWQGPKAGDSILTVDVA
# Insulin prom inh – TRM-6 insulin promoter activity inhibition; 130,000 tested, 0.9% active; AID 1273; TRM-6 cells (human fetal islet line), insulin promoter-eGFP reporter, imaging; reporter expression induced with tamoxifen; inhibition, % at 2 µM;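 active = inhibition above the mean plus 3 SD, with well images judged a real hit on visual review, cut at about 60% in these data, passing the limit was not always enough; inconclusive = inhibition over the cutoff but images rejected on review; inactive = inhibition not above the cutoff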
# RGS16-Gao – modulates binding between human RGS16 and Galphao; binding response (% of control), % at 10 µM; AID 1441; O15492+P09471; bead-based flow cytometry RGS16-Galphao binding, fluorescence; actives lie on both sides; 220,000 tested, 0.38% active;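 active = below 25% or above 175%, edge rows of some plates excepted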;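 also: Galphao activated by GDP with aluminum fluoride before binding; 100% = wells without compound and 0% = beads without RGS; some results beyond the cut were filed as inactive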
# Target sequence (O15492 whole entry, looked up): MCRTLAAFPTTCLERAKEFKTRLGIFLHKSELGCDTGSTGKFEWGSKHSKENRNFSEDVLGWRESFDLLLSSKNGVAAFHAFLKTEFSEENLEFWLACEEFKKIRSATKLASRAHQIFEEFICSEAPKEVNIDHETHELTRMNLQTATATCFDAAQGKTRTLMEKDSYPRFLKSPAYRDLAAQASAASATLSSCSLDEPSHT
# Target sequence (P09471 whole entry, looked up): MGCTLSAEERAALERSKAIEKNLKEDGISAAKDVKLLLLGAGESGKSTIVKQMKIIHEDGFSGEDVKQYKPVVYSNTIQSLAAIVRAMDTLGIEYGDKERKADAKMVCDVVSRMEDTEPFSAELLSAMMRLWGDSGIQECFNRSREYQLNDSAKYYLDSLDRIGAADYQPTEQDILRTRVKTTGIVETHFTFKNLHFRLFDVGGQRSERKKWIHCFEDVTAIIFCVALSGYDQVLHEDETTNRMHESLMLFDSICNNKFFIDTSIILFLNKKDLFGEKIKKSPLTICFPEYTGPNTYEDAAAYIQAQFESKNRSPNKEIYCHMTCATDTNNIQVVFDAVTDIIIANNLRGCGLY
# HSV augment – HSV replication enhancement; HSV replication augmentation in cells, fold increase; maximum fold increase; 220,000 tested, 0.005% active; AID 1956;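 active = peak rise of 1.5-fold or more in the series; inconclusive = self-fluorescent or not available for retest; tested in PC3 cells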;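 also: first round at 10 µM; read as green reporter fluorescence; hits show the peak of a series up to 25 µM; 1 = signal of infected wells without compound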
# Insulin prom inh cell count – also measured in Insulin prom inh; calls as there; normalized cell count, %; measured here: cell count, toxicity; reference of the scale not given here;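 cells exposed to compound for 48 h; stained nuclei by imaging scaled within each plate; lower means fewer cells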
# HSV augment primary fold – also measured in HSV augment; calls as there; fold increase; compound at 10 µM; measured here: primary screen fold increase 10 uM; tested in PC3 cells;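 GFP signal in the first replicate; 1 = infected wells without compound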
# * marks the source's active call; other numbers are inactive results; i = inactive; ? = inconclusive; / = no result given.
SMILES,PKD1 kinase inh,GALR2 agonist,Insulin prom inh,Insulin prom inh cell count,RGS16-Gao,HSV augment,HSV augment primary fold
COc1ccc(CCC(=O)Nc2ccc(Cl)c(S(=O)(=O)N3CCCC3)c2)cc1,/,/,/,/,88.7,i,0.84
CN(C)C=NC(=O)c1cc(C(=O)c2ccccc2)c[nH]1,-7.7,/,/,/,100.0,i,0.98
CCCSc1nnc(NC(=O)Nc2ccc(C)cc2)s1,/,/,/,/,97.2,i,0.99
O=C(Nc1ccc2c(c1)OCO2)NC1CCN(Cc2ccccc2)CC1,-8.2,0.1,-18.9,47.9,99.6,i,0.98
O=C(O)c1ncn(Cc2ccc(Br)cc2)c1C(=O)O,8.6,/,/,/,97.2,i,1.05
COc1nc(Oc2ccc(=O)n(C)n2)nc(N(C)C)n1,-0.2,-2.4,/,/,110.2,i,1.01
CCOC(=O)Cc1nc(-c2cccc(C(F)(F)F)c2)no1,-2.3,/,/,/,97.2,i,1.06
Cc1cc(C)nc(N2C(=O)CC(C(=O)O)NC2=NCCc2c[nH]c3ccccc23)n1 (configuration not stated),-2.7,-0.8,15.6,96.9,104.0,i,1.04
CCOC(=O)C1=C(C)NC(SCC(N)=O)=C(C#N)C1c1cccs1 (configuration not stated),-5.0,-1.7,34.3,57.4,90.0,i,0.88
O=C(NNS(=O)(=O)c1ccc2ccccc2c1)C1CCN(Cc2ccccc2)CC1,-3.4,-1.4,25.0,156.2,98.7,/,/
O=S(=O)(c1ccc(Cl)cc1)N1CCN(C(=S)Nc2ccccc2F)CC1,-2.0,/,64.7,109.8,99.8,i,0.94
O=C(NCCCn1ccnc1)/C(=C/c1cccs1)NC(=O)c1ccco1,-2.6,/,/,/,166.6,i,1.05
COc1ccc(-c2cc(-c3cccs3)c(C#N)c(SCC(=O)NCc3ccccc3)n2)cc1,10.1,-2.4,13.9,112.0,97.2,?,/
COc1cc(OC)c(S(=O)(=O)NCc2ccco2)cc1S(=O)(=O)NCc1ccco1,-5.3,-1.2,-210.5,112.6,101.5,i,0.94
O=C1c2ccccc2NC(c2ccccc2)N1/N=C/c1ccccc1 (configuration not stated),6.3,-2.2,/,/,105.8,i,0.92
CCCn1c(SCC(=O)N2CCCCC2)nnc1C(C)C,-1.2,/,42.9,78.0,104.7,i,0.97
CCOc1ccc(S(=O)(=O)N/N=C(\C)c2ccc(OC)cc2OC)cc1,-7.9,/,44.4,105.2,96.0,i,0.84
Cc1cccc(C)c1NC(=O)C1(NC(=O)Cn2cccc([N+](=O)[O-])c2=O)CCCCC1,-3.0,0.9,11.1,120.5,104.1,i,1.04
Cc1ccc(SCCC(=O)NCc2ccncc2)cc1,-6.3,/,42.9,124.4,107.7,i,0.99
N#Cc1c(N)sc(=S)c2c1CCN(Cc1ccccc1)C2,/,/,/,/,106.5,?,/
COc1nc(NCc2cccnc2)nc(OC)n1,5.1,-1.2,-36.4,125.1,103.7,i,0.93
CCCCOC(=O)c1ccc(N2C(=O)CC(N3CCN(C/C=C/c4ccccc4)CC3)C2=O)cc1 (configuration not stated),0.2,-1.6,11.9,126.0,100.3,i,1.02
O=c1[nH]cnc2scc(-c3ccccc3)c12,0.3,-3.6,25.6,78.3,106.0,i,0.97
Cc1ccc(-n2c(-c3ccncc3)n[nH]c2=S)c(C)c1,2.1,/,/,/,101.1,i,1.04
Cc1ccccc1OCCn1cc(/C(N)=N/O)c2ccccc21,-1.1,1.2,/,/,100.1,i,0.73

# Later entries.
SMILES,PKD1 kinase inh,GALR2 agonist,Insulin prom inh,Insulin prom inh cell count,RGS16-Gao,HSV augment,HSV augment primary fold
Cc1cc(C)cc(N(C(C)C(=O)NCc2ccc3c(c2)OCO3)S(C)(=O)=O)c1 (configuration not stated),-7.0,/,-50.0,107.7,101.5,i,1.03
O=C(CSc1nnc(COc2ccccc2)n1Cc1ccco1)Nc1ccc2c(c1)OCCO2,-2.8,-1.9,-26.3,37.6,101.8,i,0.97
Cc1cc[n+](CC2OCc3ccccc3CO2)cc1,2.2,/,/,/,103.6,i,0.96
N#Cc1c(NC(=O)CN2CCCCC2)sc2c1CCC2,-2.5,-1.2,65.7,132.8,93.7,i,0.93
Cc1ccc(S(=O)(=O)CC(=O)Nc2ccc(S(=O)(=O)Nc3ccccn3)cc2)cc1,-2.8,/,8.3,125.5,99.9,i,0.99
CN(C(=O)CSc1nnc(Nc2ccccc2)s1)c1c(N)n(Cc2ccccc2)c(=O)[nH]c1=O,-9.0,-0.9,38.2,63.5,57.6,i,0.86
COC(=O)c1ccccc1NC(=O)C1CC(=O)N(c2ccc(C)c(C)c2)C1 (configuration not stated),-1.8,-0.6,36.7,81.3,100.5,i,0.88
Cn1c(SCC(=O)C(C)(C)C)nnc1-c1ccncc1,-1.4,-0.9,0.0,111.6,100.1,i,0.81
CCOC(=O)C1CCCN(C(=O)Cn2nc(CC)n3c(cc4sccc43)c2=O)C1 (configuration not stated),2.5,-0.7,/,/,107.2,i,0.94
CC(C)(C)c1cc(N)n2nc(C(C)(C)C)cc2n1,7.7,/,30.0,79.6,98.7,i,0.93
Cc1cccc(C)c1NC(=O)c1ccc([N+](=O)[O-])s1,4.8,-0.8,/,/,103.3,i,0.78
Cc1ccc(OCc2nc(-c3cccs3)no2)c([N+](=O)[O-])c1,2.1,/,13.3,77.9,103.4,i,1
Cc1ccc(-n2c(C)cc(/C=N/NC(N)=S)c2C)cc1,-0.9,1.9,-44.8,107.5,98.7,i,0.95
c1ccc(OCCN2CCN(Cc3nc(-c4ccc5c(c4)OCO5)no3)CC2)cc1,-0.9,/,/,/,95.8,i,0.95
COC(=O)c1sc(NC(C)=O)c(C(=O)OC)c1C,1.2,-3.1,/,/,102.2,i,0.97
O=C(CN1CCN(c2ccccc2)CC1)Nc1ccc(-n2cnnn2)cc1,-8.9,-3.0,24.0,80.8,101.3,i,0.71
COc1ccc(OC)c2c1sc(=NC(=O)C(C)(C)C)n2C,-7.8,-1.2,/,/,98.8,/,/
O=Cc1ccccc1Oc1nc(N2CCOCC2)nc(N2CCOCC2)n1,0.6,/,/,/,97.3,i,1
CC1=C(C(=O)N2CCOCC2)C(c2c(F)cccc2F)NC(=O)N1 (configuration not stated),6.3,/,-10.5,110.0,95.3,i,1.05
[O-]C1=N/[N+](=C/c2ccccc2)CC1,/,/,/,/,98.5,i,0.98
O=C(CN1CCCCC1)Nc1cccc(Cl)c1Cl,6.8,2.1,60.0,99.3,98.1,i,1.14
CCCCN=CC1=C(O)CC(c2ccccc2)CC1=O (configuration not stated),-0.5,/,/,/,103.4,i,1
COC(=O)c1ccc(NC(=O)CNC(=O)C2CCCCC2)cc1,1.7,-1.6,/,/,102.5,i,1.01
O=C1NC(c2ccccc2)(C(F)(F)F)C(=O)N1Cc1cccnc1 (configuration not stated),-9.0,-2.5,18.8,95.5,103.5,i,1.05
COc1ccc(OC)c(NC(=O)CSc2nnc(CNC(=O)COc3ccc(Cl)cc3)o2)c1,6.2,0.5,-128.6,135.9,117.5,i,0.89

# Given tab-delimited: entries from further up.
canonical_smiles	PKD1 kinase inh	GALR2 agonist	Insulin prom inh	Insulin prom inh cell count	RGS16-Gao	HSV augment	HSV augment primary fold
Cc1ccccc1OCCn1cc(/C(N)=N/O)c2ccccc21	-1.1	1.2	/	/	100.1	i	0.73
Cc1cc(C)cc(N(C(C)C(=O)NCc2ccc3c(c2)OCO3)S(C)(=O)=O)c1 (configuration not stated)	-7.0	/	-50.0	107.7	101.5	i	1.03
O=C(CSc1nnc(COc2ccccc2)n1Cc1ccco1)Nc1ccc2c(c1)OCCO2	-2.8	-1.9	-26.3	37.6	101.8	i	0.97
Cc1cc[n+](CC2OCc3ccccc3CO2)cc1	2.2	/	/	/	103.6	i	0.96
N#Cc1c(NC(=O)CN2CCCCC2)sc2c1CCC2	-2.5	-1.2	65.7	132.8	93.7	i	0.93
Cc1ccc(S(=O)(=O)CC(=O)Nc2ccc(S(=O)(=O)Nc3ccccn3)cc2)cc1	-2.8	/	8.3	125.5	99.9	i	0.99

# (listing goes on)
SMILES,PKD1 kinase inh,GALR2 agonist,Insulin prom inh,Insulin prom inh cell count,RGS16-Gao,HSV augment,HSV augment primary fold
CSc1nnc2c(n1)OC(C)=Nc1ccccc1-2,-22.7,-1.9,/,/,28.2,i,0.98
CCc1ccc(N(CC(=O)NC2CCCCC2)S(=O)(=O)c2c(C)noc2C)cc1,0.9,-3.3,/,/,107.5,i,0.93
CS(=O)(=O)N(CC(=O)N1CCOCC1)c1ccc2c3c(cccc13)CC2,-4.5,-0.1,5.3,144.4,103.4,i,0.95
CC1CCc2nc(N)c(C#N)c(-c3cccnc3)c2C1 (configuration not stated),17.3,-1.4,/,/,107.2,i,0.54
CN(Cc1ccccc1)Cc1c(F)cccc1F,2.2,-1.0,-34.9,92.2,113.9,i,0.96
CCOc1ccc(NC(=S)N2CCN(C/C=C/c3ccccc3)CC2)cc1,-5.5,/,/,/,100.6,i,0.61
CN(NC(=O)c1c(Cl)cccc1Cl)c1cccc(Cl)n1,-7.4,/,-50.0,151.2,105.8,i,0.92
CNc1cc([N+](=O)[O-])ccc1N/C=C/C(=O)c1ccc2c(c1)OCO2,1.2,-1.4,-26.1,61.8,100.1,i,1.06
O=C(Nc1cc(Sc2nc3ccccc3s2)cc([N+](=O)[O-])c1)c1cccc(F)c1F,-2.7,0.0,/,/,105.8,i,0.96
O=C(NCCCN1CCOCC1)c1ccc(Cl)s1,-2.7,-1.2,23.3,114.9,106.2,i,0.91
OC1CCC(NC(=S)Nc2ccc(SC(F)F)cc2)CC1 (configuration not stated),-3.7,/,14.3,101.6,94.8,i,0.9
COc1ccccc1NC(=O)c1ccc(-n2cccn2)c([N+](=O)[O-])c1,-4.4,/,/,/,98.2,i,1.05
CCN=c1scc(-c2ccc3c(c2)NC(=O)CO3)n1N=C1CCCC1,11.1,0.2,0.0,89.5,95.5,i,1.07
CCOP(=O)(OCC)C(NC(=O)c1ccc(OC)cc1)c1ccccc1 (configuration not stated),-2.6,/,-25.7,94.3,98.6,i,0.91
COc1ccc(-n2c(=O)c3c4c(sc3n(CC(=O)Nc3cc(C)[nH]n3)c2=O)CCCC4)c(OC)c1,5.7,/,-2.7,194.6,103.3,i,0.95
CCn1c(SCC(=O)NCc2ccc3c(c2)OCO3)nnc1-c1ccncc1,-14.4,/,/,/,105.5,i,1.03
COc1ccc(CCNC(=O)C2CC(=O)N(CCc3ccccc3)C2)cc1OC (configuration not stated),-1.4,/,15.8,84.1,95.3,i,0.97
CCCn1ncc(CN2CCN(CCc3ccccc3)C(CCO)C2)c1C (configuration not stated),-6.5,/,/,/,101.7,i,1.13
O=C(CCCc1nc2ccccc2s1)N1CCN(c2ccccc2F)CC1,-6.0,-0.5,/,/,103.1,i,0.97
CCCNS(=O)(=O)c1ccc(OCC(=O)NCc2ccco2)cc1,-3.5,-0.3,-468.8,25.7,97.8,i,0.95
COc1cccc(N(CC(=O)NCC2CCCO2)C(=O)CCC(=O)Nc2nccs2)c1 (configuration not stated),-3.8,/,/,/,100.0,i,1.04
O=C(NCCCCNC(=O)c1cccnc1)c1cccnc1,0.0,0.5,0.0,53.4,103.6,i,1

# Single values from the entries so far:
# CN(Cc1ccccc1)Cc1c(F)cccc1F | Insulin prom inh = -34.9
# CCOP(=O)(OCC)C(NC(=O)c1ccc(OC)cc1)c1ccccc1 (configuration not stated) | HSV augment primary fold = 0.91
# CNc1cc([N+](=O)[O-])ccc1N/C=C/C(=O)c1ccc2c(c1)OCO2 | PKD1 kinase inh = 1.2
# O=C(Nc1cc(Sc2nc3ccccc3s2)cc([N+](=O)[O-])c1)c1cccc(F)c1F | HSV augment primary fold = 0.96
# O=C(NCCCN1CCOCC1)c1ccc(Cl)s1 | PKD1 kinase inh = -2.7
# O=C(CCCc1nc2ccccc2s1)N1CCN(c2ccccc2F)CC1 | PKD1 kinase inh = -6.0

# Source: PubChem BioAssay (several laboratories)

# Compounds were not picked by outcome. Share with any hit: about 1.3%.
